Compound activity as filed in PubChem BioAssay.
NPYLR7 agonist – activates Aedes aegypti NPYLR7 receptor. 0.15% of 270,000 active. HEK293T NPYLR7/Galpha15, GCaMP6s calcium fluorescence. activation, % at 10 µM. AID 1259423; in the data active = activation above about 40%;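 also: 0% = vehicle and 100% = reference agonist at the receptor; some compounds past the cut are filed as inactive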
NPYLR7 agonist max-min – also measured in NPYLR7 agonist; calls as there; activation, %; measured here: Max-Min RFU normalised activation; some inactives read as strong as hits;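 span of the calcium signal over five minutes; 0% = vehicle and 100% = native peptide agonist; compound fluorescence can raise it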
Numbers without * were called inactive; i = inactive; & = joins results of further samples.

Results follow in this order: NPYLR7 agonist	NPYLR7 agonist max-min
NC(=O)[C@H](Cc1ccccc1)NC(=O)c1c2c(nc3ccccc13)-c1ccccc1CC2
  0.9	2.5
Cc1ccccc1NC(=O)Cn1c(=O)n(Cc2ccc3c(c2)OCO3)c(=O)c2oc3ccccc3c21
  0.2	-8.3
CCNC(=O)C1(C)CCCN(CC(=O)c2ccc(Cl)cc2Cl)C1 (stereo not drawn)
  4.3	0.2
C=C(C)COc1ccccc1C(=O)NC(CC(=O)O)C(F)(F)F (stereo not drawn)
  14.1	10.0
Cc1ccc(Cc2nsc(N3CCC(CNC(=O)Nc4c(Cl)cccc4Cl)CC3)n2)cc1
  14.6	18.5
Cc1cc(C)n(CC(C)NC(=O)CC23CC4CC(CC(C4)C2)C3)n1 (stereo not drawn)
  -4.1	-8.3
COc1ccccc1-n1cc(-c2ccnc(N(C)Cc3cccc(C)n3)n2)cn1
  -6.6	-15.3
Cc1cc2oc3c(c2cc1NS(=O)(=O)c1cccs1)CC(C(C)(C)C)CC3 (stereo not drawn)
  7.9	8.4
Cc1cc(Oc2ccc(C)c(C)c2)nc(SCc2cc(F)ccc2F)n1
  8.5	27.7
Cc1cccnc1CN(C(=O)CC1C(=O)NCCN1Cc1ccoc1)C(C)C (stereo not drawn)
  1.6	-0.8
COC(=O)C1CC(O)C(N(C)Cc2sccc2C)C1 (stereo not drawn)
  13.3	8.6
O=C(CN1CCN(Cc2ccc(Cl)s2)CC1)N1CCOCC1
  2.0	4.2
Cc1[nH]nc2c1C(c1cc(C(C)C)no1)CC(=O)N2 (stereo not drawn)
  13.7	5.9
Cc1ccc(CC2CCCN(C(=O)CSc3ncn[nH]3)C2)cc1 (stereo not drawn)
  1.5	2.3
CN(c1cc(Cl)nc(SCc2ccc(C(=O)NCCc3ccc(Cl)cc3Cl)cc2)n1)C1CCCCC1
  22.5	19.5
Clc1ccc(C2C3CSc4ccccc4C3=Nc3nnnn32)cc1 (stereo not drawn)
  24.5	21.7
CCc1nc([C@H]2CN(C)C[C@@H]2C(=O)NCCc2cnccn2)c(C)[nH]1
  6.5	3.9
Cn1c(=O)c2c(nc(NCCCO)n2C)n(C)c1=O
  2.5	-1.2
Cn1c(=O)c2c(nc(NCc3ccco3)n2C)n(C)c1=O
  10.4&6.9	12.2&-0.9
O=C(NCc1ccc(C(=O)N2CCCC2)cc1)Nc1ccccc1
  1.3	-1.7
Cc1[nH]nc(-c2ccc(OCCN3CCOCC3)cc2O)c1-c1ccccc1
  -5.0	-8.1
CC(C)n1ncc2c(C(=O)OCCN3CCCC3=O)cc(C3CC3)nc21
  4.1	3.5
Cc1nn(C)c(C)c1-c1cc(C(=O)O)[nH]n1
  -2.1	-4.2
CCOC(=O)C1CCCN(C(=O)c2coc(CN(Cc3ccccc3OC)C(C)C)n2)C1 (stereo not drawn)
  14.1	11.6
Cc1nnc(SCc2ccc(Br)cc2)[nH]c1=O
  -1.3	-1.0
O=S(=O)(c1ccc(OCCOc2ccc(Br)cc2)cc1)N1CCOCC1
  0.3	0.4
COC(=O)CCCN1C(=O)c2cccc3cccc(c23)C1=O
  0.8&0.7	0.1&-3.2
O=C(NC1CCCN(CCc2ccccc2)C1)c1cc(-c2ccsc2)n[nH]1 (stereo not drawn)
  2.4	-3.0
COc1cccc(C(=O)N2CCN(C(C(=O)NCc3cccnc3)C3CCCC3)CC2)c1 (stereo not drawn)
  -8.3	7.4
COC(=O)CN1N=C(C)Cn2c1nc1c2c(=O)n(CC(C)C)c(=O)n1C
  -6.4	-6.0
COc1cn2c(cc1=O)C(=O)N(CCNC(=O)C1CC1)CC2
  13.0	4.4
NC(=O)c1ccsc1NC(=O)CCN1CCC2(CC1)OCCO2
  0.1	0.0
O=C(CN1CCc2cc([N+](=O)[O-])ccc21)Nc1c(F)cccc1F
  7.7	12.5
O=C(O)/C=C/c1ccc(S(=O)(=O)NCCCC(=O)O)cc1
  5.0	1.4
CCN1CCC(N(C)C(=O)Nc2cccc(Cl)c2)CC1
  -0.4	0.0
CN1CC(NCc2cnc(-c3cccs3)s2)CC1=O (stereo not drawn)
  13.7	16.9
CSc1ccc(C(=O)NCC(=O)N2CCC3(CC2)C(=O)NCN3c2ccccc2)cc1
  -13.4	-22.3
CCCCC(=O)N1CCN(c2ncnc3c2nnn3Cc2ccccc2)CC1
  -13.7	-23.4
C#CC(C)(C)OC(=O)c1ccc(OC)cc1
  -2.9	-3.5
COc1ccc2[nH]c3c(=O)n(CCCCC(=O)N4CCN(c5ccccn5)CC4)c(=S)[nH]c3c2c1
  -8.2	-13.3
O=C(COc1ccccc1)Oc1coc(CSc2ncccn2)cc1=O
  -10.9	-4.5
O=S(=O)(CCNS(=O)(=O)c1ccccc1)Nc1ccc(F)cc1F
  0.9	2.5
COc1ccc(OC)c(S(=O)(=O)Nc2ccc(CCNC(=O)NC(C)C)cc2)c1
  -19.1	-25.4
CC(C)CCN=C(NC(=O)c1cccc(F)c1)OC(C)C
  -10.8	-7.2
CCOC(=O)c1nn(-c2cccc(Cl)c2)c2nnc(C)c(=O)n12
  -6.8	-7.7
COc1ccc(CCOC(=O)[C@@H]2CCCN2C(=S)Nc2c(Cl)cccc2Cl)cc1OC
  -5.0	-13.8
Cn1nnnc1SCCn1ccnc1-c1cnc[nH]1
  5.0	1.9
Cn1c(=O)c2c(-c3cccc(Cl)c3)c(NCCc3ccccc3)oc2n(C)c1=O
  -2.3	-2.4
O=C(NCCCNC(=O)[C@H]1CCCN1S(=O)(=O)c1cccc(C(F)(F)F)c1)c1ccccc1
  11.5	20.9
COc1nc(Nc2cccc([N+](=O)[O-])c2)nc(OC)n1
  0.8	-5.6
C=CCSc1n[nH]c2nc3ccccc3n12
  0.8	6.7
O=C(CSc1ncn[nH]1)Nc1nonc1-n1cccc1
  -4.1	-7.1
Cc1cc2c(N3CCC4(CC3)CNC(=O)C4)ncnc2s1
  0.9	11.9
O=C(CCN(Cc1ccco1)c1nc(Cc2ccccc2)ns1)NCCc1ccc(Cl)cc1Cl
  9.7	17.1
N#CCn1cnc2c(nnn2-c2ccc(Cl)cc2)c1=O
  1.6	0.4
CCCn1ncc(C(=O)N2CCC(=O)N(CC3CC3)C(C(C)C)C2)c1C (stereo not drawn)
  9.0	8.0
COc1ccc(Oc2ccc(CNC(=O)C3CCCN(C(=O)N4CCCC4)C3)cn2)cc1 (stereo not drawn)
  1.5	-1.0
Cc1ccc(CNC(=O)C2CC(=O)N(CC(F)(F)F)C2)cc1 (stereo not drawn)
  1.2	0.3
COc1ccc(Oc2cc(N3CCN(C(=O)C(C)Cl)C(C)C3)ncn2)cc1 (stereo not drawn)
  -9.7	-5.2
C=C1C=CC(NC(=S)NC)=CC1
  -4.1	-6.1

Reformatted: results already given
> O=C(NCCCNC(=O)[C@H]1CCCN1S(=O)(=O)c1cccc(C(F)(F)F)c1)c1ccccc1
- NPYLR7 agonist: 11.5
- NPYLR7 agonist max-min: 20.9
> COc1ccc(OC)c(S(=O)(=O)Nc2ccc(CCNC(=O)NC(C)C)cc2)c1
- NPYLR7 agonist: -19.1
- NPYLR7 agonist max-min: -25.4

Carrying on.
Results follow in this order: NPYLR7 agonist	NPYLR7 agonist max-min
O=C(Nc1ccc(Cn2cccn2)cc1)NC1CCCSC1 (stereo not drawn)
  1.1	0.6
Cc1oc(-c2ccccc2Cl)nc1COc1ccc(N2CCOC2=O)cc1
  0.5	-3.1
COc1cccc(CNC(=O)C2CCN(C(=O)[C@@H](Cc3ccccc3)NC(=O)c3cc(C(C)(C)C)oc3C)CC2)c1
  26.8	18.3
CC(C)c1nnc2sc(CCCc3cn[nH]c3)nn12
  8.2	1.3
Oc1ccc(Oc2ncc(Cl)cc2Cl)cc1
  2.5	9.9
CCOC(=O)C1=C(CCl)NC(=O)NC1c1cccs1 (stereo not drawn)
  2.5	0.5
CCCN1CC(c2n[nH]c(CCc3ccccc3)n2)CCC1=O (stereo not drawn)
  -1.5	-8.5
CCOC(=O)c1c(N2CCOCC2)nc2ccc([N+](=O)[O-])cc2c1-c1ccccc1
  -3.3	-5.3
O=C(CC1CCCCC1)NCCCn1nc(-c2ccc(Cl)cc2)ccc1=O
  0.0	-1.8
CCn1ccnc1CN(CC1CCN(C2Cc3ccccc3C2)CC1)CC1CCCO1 (stereo not drawn)
  16.9	3.5
CC(=O)NCCNC(=O)C1(C)Cc2c(-c3cccc(NC(C)=O)c3)ccnc2O1 (stereo not drawn)
  -2.0	-3.1
Clc1ccc2nc(COc3cccc(-n4cnnn4)c3)cn2c1
  9.9	6.6
CC(C)CNC(=O)CN1C(=O)CC(c2ccc(Cl)cc2)NC1=O (stereo not drawn)
  1.1	0.9
OCC1CCCN(c2ncc(Br)c3ccccc23)C1 (stereo not drawn)
  2.5	0.7
CC(C)c1cc(-n2ccnc2)n2ncc(-c3ccccc3)c2n1
  3.1	1.9
Cc1cc(C)n(-c2ccc(C(=O)Nc3cccc(C(F)(F)F)c3)cc2)n1
  -2.6	-5.0
COc1ccc(C2CC(=O)C3C(=Nc4ccccc4NC3c3cc(Br)c(O)c(OC)c3)C2)cc1 (stereo not drawn)
  -5.9	-3.5
Cc1ccc(Cn2c(=O)c3c(nc4n3CCN4Cc3ccccc3)n(C)c2=O)cc1
  5.0	4.9
COc1ccc(OC)c(-c2cccc(-c3cccc(NC(=O)Cc4ccc(F)cc4)c3)n2)c1
  -0.7	-0.6
Oc1ccc(CN2CCCn3cccc3C2c2ccc(F)c(F)c2)c(O)c1 (stereo not drawn)
  3.3	13.3
CCS(=O)(=O)Oc1cc(CN(CCOC)C(=O)NC(C)(C)C)ccc1OC
  -1.5	4.3
Cc1cc(C)c(S(=O)(=O)NCc2cccnc2)c(C)c1
  3.8	1.4
Cc1ccc(C(=O)N2C(C(=O)NCC3CCCO3)COC23CCN(C(=O)Cc2cccs2)CC3)cc1 (stereo not drawn)
  0.4	11.3
CN=c1scc(-c2ccc(C)cc2)n1N=Cc1ccc(F)cc1
  -1.4	-1.9
CC(C)(CNc1nc2nonc2nc1NCc1ccccc1)N1CCOCC1
  1.4	-1.7
CC(C)Oc1nc(-c2ccccc2F)n(-c2ccc(NS(=O)(=O)c3ccc(F)cc3)cc2)n1
  25.2	20.7
O=C(Nc1ncnc2sccc12)c1ccc(S(=O)(=O)N2CCCC2)cc1
  -8.3	-9.1
CC(C)CN(Cc1ccsc1)C(=O)CCN1CCCCCC1=O
  11.3	8.6
COCCn1c(CN2CCOCC2)nc2c1c(=O)n(C)c(=O)n2C
  0.5	-1.7
Cn1c(=O)c2c(ncn2Cc2ncc(-c3ccc(Cl)cc3)o2)n(C)c1=O
  2.0	4.1
CCC1=NOC(Cn2cnc(-c3ccccc3)c2-c2ncnn2CC)C1 (stereo not drawn)
  10.8	-5.3
CCOCCNC(=O)c1cccnc1N(C)C
  3.2	i
Cc1nc(NC(=O)N2CCCC2Cc2c(F)cccc2Cl)oc1C (stereo not drawn)
  3.2&-1.9	2.3&-1.1
CCOc1ccc(CC(=O)Oc2coc(CSc3nc(C)cs3)cc2=O)cc1
  -3.5	-8.9
CC(NC(=O)c1nn(-c2ccc(Cl)cc2)c(=O)n(Cc2ccc(C(F)(F)F)cc2)c1=O)c1ccccc1 (stereo not drawn)
  4.7	5.1
COc1ccc(CCNC(=O)c2snnc2C)cc1
  -9.9	-15.3
Cc1nc(CNC(=O)CSCc2ccccc2Cl)cs1
  -5.4	-9.8
CCC(=O)Oc1c(S(=O)(=O)c2ccc(C)cc2)c(C)nn1C(C)(C)C
  -0.3	28.6
CCOC(=O)[C@@H](NC(=O)[C@@H](C)c1ccc2cc(OC)ccc2c1)C(C)(C)C
  5.6	2.5
OCc1cn(C2CCN(Cc3ccc(-c4ccn[nH]4)o3)CC2)nn1
  18.8	2.7

One compound at a time, as listed above.
Listed for Cc1nc(NC(=O)N2CCCC2Cc2c(F)cccc2Cl)oc1C (stereo not drawn) = NPYLR7 agonist: 3.2&-1.9; NPYLR7 agonist max-min: 2.3&-1.1
Listed for CN=c1scc(-c2ccc(C)cc2)n1N=Cc1ccc(F)cc1 = NPYLR7 agonist: -1.4; NPYLR7 agonist max-min: -1.9
Listed for Cc1ccc(C(=O)N2C(C(=O)NCC3CCCO3)COC23CCN(C(=O)Cc2cccs2)CC3)cc1 (stereo not drawn) = NPYLR7 agonist: 0.4; NPYLR7 agonist max-min: 11.3

Going on with the list:
Results follow in this order: NPYLR7 agonist	NPYLR7 agonist max-min
Cc1ccc(CC2CCCN(Cc3noc(CC(C)C)n3)C2)cc1 (stereo not drawn)
  0.6	-0.9
CCOc1ccc(NC(=O)N2CCN(c3nc(-c4cccc(F)c4)nc(C)c3CC)CC2)cc1
  -5.0	2.7
COc1ccc(SCC(=O)Nc2ccc(NC(=O)C3CC3)nc2)cc1
  18.1	14.6
CC(C)(C)c1ccccc1NC(=O)CCC(=O)N1CC=CCC1
  10.5	0.4
Cc1nsc(N2CCN(C(=O)c3n[nH]c4c3CCC4)CC2)n1
  -28.0	-23.9
CC(C)CC(=O)N[C@H]1[C@H](O)[C@@H]2O[C@H]1c1ccccc12
  1.0	13.7
Cc1cc2oc3c(c(=O)c2cc1Cl)C(c1ccc(F)cc1)N(c1nccs1)C3=O (stereo not drawn)
  6.3	2.7
Cn1c(=O)c2cc(NC(=O)Cc3ccccc3F)ccc2n1Cc1cccc(C(F)(F)F)c1
  8.7	5.2
COc1ccc(S(=O)(=O)N2CCN(C(=O)c3cc4ccoc4n3Cc3ccccc3C)CC2C)cc1 (stereo not drawn)
  1.4	10.6
COCCN1CC(C(=O)NCCC2=CCCCC2)CCC1=O (stereo not drawn)
  2.4	2.3
CN(CCc1cnn(C)c1)Cc1cn(C)nc1-c1ccc(C2CCCCC2)cc1
  -0.3	-1.6
Cc1ccc2nc(NC(=O)COc3ccc(Cl)cc3Cl)sc2c1
  1.2	3.7

Only part of the results is shown; count on the stated rates, not on these rows.
